TRPV1 PAM: HTS Assay for Compounds that Act as Potentiators of the Vanilloid Receptor 1. actives 0.02% (n = 320,000). AID 540277, 2011. TRPV1-expressing cells, Fluo-8 calcium influx, capsaicin EC20 potentiation; host cell line not named in the record; control for the full effect not named in the record. potentiation, % at 8.33 µM. Transient receptor potential cation channel subfamily V member 1 (Homo sapiens), Q8NER1; active means potentiation above 80%; inconclusive means 30% to 80%; inactive means below 30%; also: 0% is about no effect
Target sequence (Q8NER1 whole entry, looked up): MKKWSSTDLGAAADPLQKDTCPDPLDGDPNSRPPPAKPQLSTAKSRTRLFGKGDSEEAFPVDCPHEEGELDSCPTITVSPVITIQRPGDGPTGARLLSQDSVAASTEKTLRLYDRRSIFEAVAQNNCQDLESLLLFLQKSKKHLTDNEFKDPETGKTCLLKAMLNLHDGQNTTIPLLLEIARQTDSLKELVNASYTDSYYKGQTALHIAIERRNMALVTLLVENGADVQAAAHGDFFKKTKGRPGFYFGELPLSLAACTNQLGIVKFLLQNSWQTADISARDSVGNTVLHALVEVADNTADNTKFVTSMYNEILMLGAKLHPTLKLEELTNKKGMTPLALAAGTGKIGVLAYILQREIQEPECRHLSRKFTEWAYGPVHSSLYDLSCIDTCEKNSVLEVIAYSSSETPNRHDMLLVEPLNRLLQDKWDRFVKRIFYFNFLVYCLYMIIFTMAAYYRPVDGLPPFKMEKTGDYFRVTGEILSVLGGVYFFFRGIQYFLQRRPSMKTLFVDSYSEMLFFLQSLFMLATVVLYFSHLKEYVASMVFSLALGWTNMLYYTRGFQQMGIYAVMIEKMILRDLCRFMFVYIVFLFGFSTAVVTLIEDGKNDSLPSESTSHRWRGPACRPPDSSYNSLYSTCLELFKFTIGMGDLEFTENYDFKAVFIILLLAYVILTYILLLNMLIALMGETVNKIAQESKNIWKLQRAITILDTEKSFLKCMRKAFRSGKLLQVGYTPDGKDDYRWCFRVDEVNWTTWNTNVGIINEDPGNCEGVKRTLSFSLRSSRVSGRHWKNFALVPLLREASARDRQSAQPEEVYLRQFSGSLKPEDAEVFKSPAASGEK
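Cells expressing TRPV1 were dye-loaded with Fluo-8 and read kinetically: 10 s baseline, 3 min after compound (agonist portion), then 2 min after EC20 capsaicin (allosteric enhancer portion). Calcium-bound dye fluorescence at 480/520 nm.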
PINK1 modulator: A Quantitative High throughput Screen to Identify Chemical Modulators of PINK1 Expression | Potency, µM (highest dose often 76.6 µM), without a hit: at the top dose activation (PINK1 increase), usual class: activators | AID 624263, 2012 | PINK1 immunofluorescence, high-content cytometry, 24 h | actives 0.2% (n = 410,000); active = well fitted activation curve with a large enough effect; inconclusive = small, poorly fitted or top-dose-only effect; inactive = flat fitted curve, though single readings scatter; cell line not stated here;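 also: potency is read from the fitted curve at half-maximal effect; % of control where 0% means no effect; nearly all actives have a fitted effect of over 65% in size; a mitochondrial uncoupler was the plate control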
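A stable cell line was treated with compounds at 5 concentrations for 24 hours, with CCCP as control. PINK1 levels and mitochondrial localization were measured by immunofluorescence with mitochondrial, cell and nuclear markers after fixation, read by laser-scanning cytometry.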
TRPML1 ag: qHTS for Agonists of the Human Mucolipin Transient Receptor Potential 1 (TRPML1); actives 0.12% (n = 410,000); activation, % (concentration not given with the values); Mucolipin-1 (Homo sapiens), Q9GZU1; AID 624414, 2012; TRPML1-expressing cells, Ca2+ dye fluorescence, FDSS; host cell line not named in the record; reference of the full effect not given here; in the data active = activation above about 50%; inconclusive = about 30% to 50%; inactive = below about 30%; also: 0% is about no effect; the text of the record puts the active cut at 80%
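Agonist activity was taken from a 110 s kinetic Ca2+ dye read on the FDSS after pinning compounds onto TRPML1-DL cells. The cells were seeded at 1,500/well with Tet inducer, incubated about 16 h, then dye-loaded at room temperature.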
TRPML1 inh: qHTS for Inhibitors of the Human Mucolipin Transient Receptor Potential 1 (TRPML1). Mucolipin-1 (Homo sapiens), Q9GZU1. TRPML1-inducible cells, Ca2+ dye fluorescence, FDSS; hits give low values; inhibition of EC80 agonist-evoked calcium signal. activity change, negative = inhibition, % (no concentration beside the values). actives 0.02% (n = 390,000); in the data active means activity change below about -50%; inconclusive means about -30% to -50%; inactive means above about -30%;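 also: stimulus is agonist 54-4 at its EC80 concentration; % is scaled to controls: 0 for no effect and ±100 for the full control effect; compound concentration not given in the record; the text of the record puts the active cut at -80%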
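Tet-induced TRPML1-DL cells loaded with Ca8 no-wash calcium dye were read kinetically on FDSS. Compound addition was followed by EC80 agonist 54-4 (4 uM final); inhibition was read over 110 s.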
ClpP mod: qHTS Assay for Activators of ClpP; Potency, µM (highest dose often 57.5 µM), inactives show at the top dose activity change, negative = active; actives 1.9% (n = 340,000); AID 651965, 2013; purified B. subtilis ClpP, FRET peptide cleavage, 20 min; active = well fitted falling curve with a large enough effect; inconclusive = small, poorly fitted or top-dose-only effect; inactive = no such curve, though single readings can be large or run the other way; also: potency is read from the fitted curve at half-maximal effect; the source files actives as falling curves though it sought activators and does not explain the sign; nearly all actives have a fitted effect of over 65% in size; many hits overshoot -100%
Target sequence (P80244 whole entry, looked up): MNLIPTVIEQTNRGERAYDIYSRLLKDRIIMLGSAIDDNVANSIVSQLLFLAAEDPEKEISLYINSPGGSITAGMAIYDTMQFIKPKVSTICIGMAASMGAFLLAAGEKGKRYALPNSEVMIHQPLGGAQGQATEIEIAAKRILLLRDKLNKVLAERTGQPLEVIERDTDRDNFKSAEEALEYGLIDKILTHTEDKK
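Buffer: 100 mM Tris/HCl pH8, 100 mM KCl, 0.05% low protease BSA, 2.5% glycerol, 0.01% Tween-20. ClpP 10 microg/mL final; 20 min RT; delta FRET normalized to ADEP and DMSO controls.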
Sfp PPTase inh: qHTS Assay for Inhibitors of Bacillus subtilis Sfp phosphopantetheinyl transferase (PPTase); 4'-phosphopantetheinyl transferase ffp (Bacillus subtilis), Q9F4F7; Biochemical Sfp PPTase activity, qHTS; Potency, µM, for inactives: max response, negative = inhibition, most hits filed as inhibitors; actives 3.5% (n = 310,000); AID 1490, 2009; active = well fitted inhibition curve with a large enough effect; inconclusive = small, poorly fitted or top-dose-only effect, or another doubt; inactive = no such curve, though single readings can be large or run the other way;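 also: the enzyme is Sfp with the accession as filed and its product quenches rhodamine fluorescence; potency is read from the fitted curve at half-maximal effect; 0% = enzyme reaction without inhibitor and -100% = no enzyme wells; top concentration of the series not given in the record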
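Step 1, compound plus 15 nM Sfp-PPTase, 15 min, room temperature. Step 2, add rhodamine-CoA (5 uM) and BHQ-2-YbbR (12.5 uM). Step 3, read 525/598 nm fluorescence at 0 and 30 min.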
Menin MLL FP FL: qHTS Assay for Inhibitors Targeting the Menin-MLL Interaction in MLL Related Leukemias: Competition With Fluorescein Labeled MLL-derived Peptide | Fluorescence polarization, fluorescein-MLL peptide displacement from menin | FP activity change, % at 61.4 µM | 290,000 tested, under 10 active; inconclusive = falling polarisation curve, or a change in total fluorescence; inactive = total fluorescence flat and polarisation flat or rising; no compound was filed as active; the % refers to the polarisation; negative = inhibition;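 also: % of control where 0% means no effect; inhibitors lower the polarisation; unlabelled MLL peptide was the positive control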
Numbers without * were called inactive; ? = inconclusive; / = no result given; & = joins results of further samples; [ ] = another dose, or the depositor's remark.

Each structure is followed by: PINK1 modulator	TRPV1 PAM	Menin MLL FP FL	TRPML1 inh	TRPML1 ag	Sfp PPTase inh	ClpP mod
> CC(C)c1ccc(NC(=O)c2cc(S(=O)(=O)NCc3ccccc3Cl)ccc2F)cc1
  ?	/	/	8	1.9	/	-5.4%
> Cc1nc(C)c(C(=O)C2=C(O)C(=O)N(CCN(C)C)C2c2ccco2)s1 (configuration not stated)
  -0.7%	8	-1.2	11	0.8	1%	0.9%
> COc1ccc2cc(C3(C)NC(=O)N(CC(=O)NCCC4=CCCCC4)C3=O)ccc2c1 (configuration not stated)
  -1.9%	-7	-0.7	-3	-1.0	6%	-3.9%
> O=Cc1ccc(OCCCOc2cccc3cccnc23)cc1
  -0.9%	12	4.2	10	0.6	0%	-13%
> CCCCN1Cc2cc(C(=O)c3cc(OC)ccc3O)cnc2NC1=O
  0.7%	-6	7.2	-2	-0.5	0%	-6.7%
> COC(=O)c1cc(NC(=O)c2ccco2)ccc1N1CCOCC1
  1.8%	-1	-1.2	-6	-0.1	5%	/
> COc1ccc(CCC(=O)OCC(=O)c2ccc(C)cc2)cc1
  -1.0%	19	/	5	2.6	-4%	-1.9%
> CCc1nc2ccccc2n1Cc1ccc(F)cc1
  1.6%	-4	-0.9	-10	-0.5	18%	-1.6%
> COc1ccc(C2C(C(=O)Nc3ccccc3OC)=C(C)Nc3ncnn32)cc1 (configuration not stated)
  -2.7%	2	2.1	13	1.7	-4%	-2.0%
> Cc1cccc(NC(=O)COC(=O)CCCC2=NS(=O)(=O)c3ccccc3N2)c1
  0.6%&-0.9%	2	/	-5&5	-0.4&-0.5	8%	-0.1%&0.4%
> CCCCn1cnc2c(=O)[nH]c(N)nc21
  -0.1%	/	/	/	-0.3	/	?
> CCOC(=O)c1cc2occc2n1CC(=O)NCCOC
  1.9%	5	-1.8	-16	1.3	17%	-0.7%
> CCOC(=O)C1=C(Nc2ccc(OC)cc2)OCC1=O
  0.4%	0	2.5	0	-0.6	3%	-0.5%
> O=C(COc1ccc2ccc(=O)oc2c1)NC1CCS(=O)(=O)C1 (configuration not stated)
  0.1%	/	/	13	-0.1	/	/
> CCSc1nnc(-c2ccccc2N=Cc2c(C)[nH]n(-c3ccccc3)c2=O)c(=O)[nH]1
  -1.1%	16	0.1	-19	1.3	22%	0.9%
> CC(C)Nc1ncnc2c1cnn2-c1ccc(Cl)cc1
  0.6%	2	-0.7	11	0.4	-4%	4.3%&-2.6%
> COc1ccc(OC)c(CN2CCN(c3ccccc3OC)CC2)c1
  0.5%[38.3 µM]	2	0.1	1	0.4	-3%	0.8%
> CCOc1cc(CNCCc2ccc(S(N)(=O)=O)cc2)cc(Cl)c1OCc1ccccc1
  -5.2%[38.3 µM]	1	-1.7	6	0.8	3.5µM*	1.3%
> COc1ccc(S(=O)(=O)N(CC(=O)N2CCOCC2)c2ccc(F)cc2)cc1OC
  2.4%	-1	0.1	-4	-0.2	15%	-3.5%
> Cc1ccc(Nc2cc(C(=O)NC3CCCC3)c3ccccc3n2)cc1C
  1.2%	/	/	14	2.6	/	45%

Next section.
Each structure is followed by: PINK1 modulator	TRPV1 PAM	Menin MLL FP FL	TRPML1 inh	TRPML1 ag	Sfp PPTase inh	ClpP mod
> Cc1ccc(S(=O)(=O)NC(=O)C2(C)CCN2C(=O)Cc2ccc(Cl)cc2Cl)nc1 (configuration not stated)
  1.3%	/	/	/	-0.5	/	0.8%
> N#Cc1ccc(COC(=O)C2CC(=O)N(CCc3ccccc3)C2)cc1 (configuration not stated)
  -1.1%	-28	/	15	1.5	/	0.5%
> Cc1ccc(S(=O)(=O)N2CCCc3cc(NC(=O)c4c(F)cccc4F)ccc32)cc1
  1.7%&1.4%	-2	/	85&73	1.3&0.6	11%	-8.7%&-3.8%
> Cc1nc(-c2ccc(C)c(N3CCN(C(=O)Nc4ccccc4C(F)(F)F)CC3)c2)no1
  -4.7%	/	/	-11	1.5	/	0.8%
> CCN(CC)C(=O)COc1c(-c2ccco2)oc2ccccc2c1=O
  -0.7%	-10	0.2	-7	-0.1	14%	-0.6%
> CC(=O)c1cc(C)ccc1OC(=O)c1ccco1
  0.6%[38.3 µM]	6	0.7	3	-0.6	2%	1.0%
> Cc1onc(-c2ccccc2)c1C(=O)N/N=C/c1c(F)cccc1Cl
  0.6%	0	/	-3	2.0	-2%	-1.0%
> COc1ccc(-n2nc3cc(C)c(NC(=O)c4ccc(-c5ccc(Br)cc5)o4)cc3n2)cc1
  1.3%	/	/	9	-0.4	/	-13%
> Cc1ccc(NCc2cccn2-c2nnc(N3CCC(C(=O)NCCc4ccccc4)CC3)s2)cc1
  -0.8%	/	/	-6	2.6	/	-1.8%
> Cc1cccc(N2CCN(C(=O)CCCOc3ccccc3)CC2)c1C
  -2.7%	-1	8.8	29	-0.1	-9%	0.6%
> Cc1ccc(-c2nnc(SC(C)C(=O)NCc3ccco3)n2C)cc1 (configuration not stated)
  -0.7%	/	/	/	-0.9	/	0.1%
> CC(C(=O)NC1CCCCC1)N1C(=O)C2C3C=CC(C3)C2C1=O (configuration not stated)
  -0.7%	9	/	0	0.5	-1%	-0.7%
> N=C(c1ccc([N+](=O)[O-])cc1)N1CCCCC1
  -2.3%	-1	-0.3	-27	0.0	12%	-2.4%
> CCN(CC)c1cc2c(c3c1ccn3C)C1CCC2O1 (configuration not stated)
  -0.6%	/	/	/	-0.5	/	-30%
> CC(=O)C[C@H](O)CC(=O)[C@@H]1OC(=O)CCCCCCCCc2ccccc21
  0.2%	/	/	-2	-0.5	/	0.0%
> COc1ccc(C(C)=O)cc1COC(=O)c1cc(C)nc2ccccc12
  1.3%	2	1.5	-19	3.5	18%	/
> O=C(COc1ccccc1Cl)Nc1ccc(-c2nc3ccccc3s2)cc1
  1.8%	-12	/	15	0.7	/	?
> CC(Sc1nnnn1-c1ccccc1)C(=O)Nc1ccc(Cl)cn1 (configuration not stated)
  -3.0%	/	3.9	6	1.4	-1%	0.7%
> CCOc1ccc(S(=O)(=O)NCCC(=O)N2CCN(c3ncccn3)CC2)cc1
  -0.9%	3	/	14	-0.2	/	-7.2%
> COc1ccc(NC(=O)CCc2nnc3n(C)c(=O)c4sccc4n23)cc1Cl
  3.5%	/	/	10	-0.4	/	-0.9%

(continued)
Each structure is followed by: PINK1 modulator	TRPV1 PAM	Menin MLL FP FL	TRPML1 inh	TRPML1 ag	Sfp PPTase inh	ClpP mod
> O=C(NNC(=O)c1cccc2ccccc12)c1ccc(Cl)c(Cl)c1
  3.5%	/	/	18	0.8	/	1.4%
> O=[N+]([O-])c1ccc(N2CCCCC2)cc1N1CCOCC1
  -1.2%	-6	3.2	-9	-0.5	14%	1.6%
> Cc1cccc(Oc2nc3c(C)cccn3c(=O)c2/C=C(\C#N)c2nc3ccccc3[nH]2)c1
  8.1%	/	/	1	-0.3	/	-3.4%
> CN(c1ccc(OCC(=O)OCC(=O)c2c(N)n(C)c(=O)n(C)c2=O)cc1)S(=O)(=O)c1ccc2ccccc2c1
  0.8%	12	0.0	-5	-0.2	20%	0.2%
> O=C(CNC(=O)c1ccco1)OCC(=O)c1ccc(Cl)cc1Cl
  0.0%	15	0.1	-6	0.7	16%	/
> CCC(Sc1nc2n[nH]c(C)c2c(=N)n1-c1ccc(Br)cc1)C(=O)N(CC)CC (configuration not stated)
  -0.6%	/	/	26	1.6	/	-11%
> O=C(CSc1c2c(nc3ccc(Cl)cc13)CCCC2)N1CCN(c2cccc(Cl)c2)CC1
  3.4%	/	/	18	0.8	/	-5.3%
> O=S(=O)(c1ccc(Br)s1)N1CCN(c2ccc(F)cc2)CC1
  5.5%	-19	-1.3	12	1.2	50µM*	/
> COc1cc(-c2cc(OC)c3c(C)oc(C)c3c(=O)c2)ccc1OC(=O)c1cccc(C)c1
  2.3%	/	/	-5	0.4	/	1.3%
> O=C(NC(=S)N1CCc2ccccc21)c1ccc(Br)o1
  -0.2%	17	2.2	-9	-0.6	14%	/
> CCCc1nnc(SCC(=O)N(CC)CC)n1CC1CCCO1 (configuration not stated)
  2.1%	-2	0.1	6	-0.4	23%	/
> O=c1oc2ccc(Br)cc2cc1-c1nc(-c2ccccc2)no1
  1.9%	/	/	-13	0.1	/	0.6%
> COC(=O)c1cccc(Nc2ccc([N+](=O)[O-])cn2)c1
  9.9%	-5	1.7	-11	-0.1	-1%	-1.3%
> CN(C)/C=N/C1=C(C#N)C(c2cccs2)c2ccc3ccccc3c2O1 (configuration not stated)
  1.0%	0	2.9	22	1.5	-2%	/
> O=C(Cn1ccc2ccccc2c1=O)NCCC(=O)Nc1cccc(Cl)c1
  5.6%	?	4.7	-13	-1.2	1%	18µM*
> COc1ccc(/C=C/c2nc3sc4c(c3c(=O)o2)CCC4)cc1
  8.1%	/	/	-7	-0.6	/	1.4%
> O=C1CCN(Cc2ccccc2)C=C1c1ccc(Cl)cc1
  0.5%	/	/	-13	0.3	/	-1.9%
> CC(C)C(=O)N1CCC2(CC1)Oc1ccc(Cl)cc1C(=O)C21CC(c2ccccc2)=NO1 (configuration not stated)
  0.6%	-23	0.3	15	0.3	-1%	-0.1%
> Fc1ccccc1Cn1cc(C(=S)N2CCOCC2)c2ccccc21
  0.6%	-7	-2.4	-10	-0.8	5%	1.0%
> Cc1ccc(C)c(Cn2nnc3c(=O)[nH]c(C(=O)Nc4ccc(F)cc4)nc32)c1
  3.4%	22	1.3	19	4.1	-15%	/

(list continues)
Each structure is followed by: PINK1 modulator	TRPV1 PAM	Menin MLL FP FL	TRPML1 inh	TRPML1 ag	Sfp PPTase inh	ClpP mod
> COc1ccc(-n2c(=O)c(-c3cc(F)cc(F)c3)nc3cncnc32)cc1
  0.2%	/	5.3	/	/	23%	/
> Fc1ccccc1CSc1nc2ncccc2[nH]1
  1.2%	-19	2.1	1	-0.6	?	-3.3%
> CCOC(=O)c1cnc2ccc(OC)cc2c1Nc1cccc(C(C)=O)c1
  1.4%	/	/	35	4.2	/	-2.4%
> Nc1nonc1-c1nc2ccccc2n1CC(=O)Nc1ccc(F)cc1
  2.7%	/	/	-6	1.4	/	-11%
